VACV Venus inh: inhibitors of vaccinia virus (Venus reporter); Vaccinia virus Venus reporter expression, fluorescence; Potency, µM (doses to about 36.5 µM), inactives show at the top dose activity change, negative = inhibition, usual class: inhibitors; actives 0.46% (n = 330,000); AID 720580; active means well fitted inhibition curve with a large enough effect; inconclusive means small, poorly fitted or top-dose-only effect; inactive means no such curve, though single readings can be large or run the other way; tested in A549 cells; further: nearly all actives have a fitted effect of over 30% in size; inactives centre near -10
VACV mCherry inh: vaccinia inhibition (mCherry reporter) | actives 0.63% (n = 310,000) | Potency, µM (highest dose often 36.5 µM), for inactives: at the highest dose activity change, negative = inhibition, usual class: inhibitors | Vaccinia virus mCherry reporter infection, fluorescence; about a quarter of the inactives have no number | AID 720579; active = well fitted inhibition curve with a large enough effect; inconclusive = small, poorly fitted or top-dose-only effect; inactive = no such curve, though single readings can be large or run the other way; tested in A549 cells; further: nearly all actives have a fitted effect of over 35% in size; inactives centre near -10
Active calls of the source: *; i = inactive; ? = inconclusive; . = no result given; & = joins results of further samples; [ ] = another dose, or the depositor's remark. On the % scale 0 is the no-effect control and ±100 the full control effect; potency means the concentration at half of the fitted maximal effect.

Value order – VACV Venus inh | VACV mCherry inh
CC(=O)Oc1ccc2c(c1)Oc1cc(OC(C)=O)ccc1C21OC(=O)c2ccccc21
    . | -3%
COC(=O)c1cc(-c2ccc(Cl)cc2)c2c(=O)[nH]c(=O)n(C)c2n1
    -14% | -25%
Cc1ccc(C)c(OCC(=O)N(Cc2ccccc2)c2c(N)n(Cc3ccccc3)c(=O)[nH]c2=O)c1
    ? | 28µM*
COc1ccc2c(c1)C13CCN(C)C(C2)C1CCC1(C3)OCCO1 (stereo not given)
    -3% | -4%
COc1cc(OC)cc(-c2nc3ccccc3c(=O)n2OC(=O)c2ccccc2C)c1
    ? | -19%
CC(C)[C@H](NC(N)=O)C(=O)Nc1ccc(Oc2ccccc2)cc1
    -11% | -4%
O=S1(=O)CCOCCN1Cc1ccccc1
    -5% | i
c1ccc(CCOn2ccnc2)cc1
    -22% | -4%
Cc1ccc(NC(=O)CSCC(=O)Nc2ccccc2C(=O)NC2CC2)cc1
    -20% | i
COc1ccccc1C(CNC(=O)C1CCN(C(=O)Nc2ccccc2)CC1)N1CCCC1 (stereo not given)
    -7% | -11%
Cc1ccc(S(=O)(=O)N(C)C)cc1NC(=O)CN1C(=O)NC2(CCCCCC2)C1=O
    -5% | -6%
CCc1cc(=O)oc2cc(OCC(=O)N3CCCc4ccccc43)ccc12
    -13% | -18%
CCN1CCN(C(C(=O)NC2CCCC2)c2cc3c(cc2[N+](=O)[O-])OCO3)CC1 (stereo not given)
    -11% | -14%
O=C(CN(Cc1ccc(F)cc1)C(=O)CCC(=O)Nc1ccccn1)NCCc1ccccc1
    -3% | -6%
CSc1nc2ccc3nc(NC(=O)c4ccc(C)cc4)sc3c2s1
    -18% | -14%

Grouped by structure: the entries above containing an NH in an aromatic ring (two)
Value order – VACV Venus inh | VACV mCherry inh
COC(=O)c1cc(-c2ccc(Cl)cc2)c2c(=O)[nH]c(=O)n(C)c2n1
    -14% | -25%
Cc1ccc(C)c(OCC(=O)N(Cc2ccccc2)c2c(N)n(Cc3ccccc3)c(=O)[nH]c2=O)c1
    ? | 28µM*

(continued)
Value order – VACV Venus inh | VACV mCherry inh
Cc1ccc2nc(C)cc(C(=O)OCC(=O)Nc3c(C)n(C)n(-c4ccccc4)c3=O)c2c1
    -4% | -12%
Cc1cccc(-n2ccnc2SCC(=O)Nc2nccs2)c1C
    -16% | i
COc1ccc(CN2[C@@H](CC(C)=O)c3cc(C(F)(F)F)ccc3S2(=O)=O)cc1
    -9%&-14% | -8%
COc1cc(NC(=O)COC(=O)c2cc(S(=O)(=O)N3CCCCC3)ccc2Cl)c(C)cc1[N+](=O)[O-]
    -20% | i
CC(=O)c1c(C)[nH]c(C(=O)NCc2ccccc2F)c1C
    10% | -1%
Cc1cc(C(=O)Cn2nnc3ccccc3c2=O)c(C)n1Cc1cccs1
    ? | ?
CCCCC[C@@H](C)N1C[C@H](COCc2ccccc2)Oc2cc(N3CC[C@@H](O)C3)ccc2S1(=O)=O
    -9% | -15%
CCCn1c2ccccc2c2cnn(CC(=O)Nc3cccc(C(=O)OCC)c3)c(=O)c21
    -11% | -1%
COc1ccc(N(CC(=O)NC2CCCC2)S(=O)(=O)c2ccc(NC(C)=O)cc2)cc1
    -8% | -10%
Cn1c2ccccc2n2c(=O)cc(-c3ccccc3)c(C#N)c12
    0% | -12%
COc1ccc(OC)c(NC(=O)CCOc2cccc(C)c2)c1
    -16% | -19%
Cc1cccc(CN2CCN(C3CN(Cc4cn(Cc5cc(C)cc(C)c5)nn4)S(=O)(=O)C3)CC2)c1 (stereo not given)
    -11% | -15%
CC(C)(C)Nc1nc(Cl)nc(NCc2ccccc2)n1
    -20% | -9%
CCOc1ccccc1C(=O)N1CCN=C1SCc1cccnc1
    -9% | -25%
COC(=O)[C@]1(CC(C)C)N[C@H](c2ccc(-c3ccc(Cl)c(Cl)c3)cc2)[C@@H]2C(=O)N(C)C(=O)[C@@H]21
    ? | -13%

Value order – VACV Venus inh | VACV mCherry inh
CC(C)CNC(=S)Nc1ccccc1F
    -10% | -12%
Cc1cccc(C)c1NC(=O)CNC(=O)c1ccc2nc[nH]c2c1
    -6% | i
COc1ccc(NC(=O)/C=C2\SC(=O)NC2=O)cc1
    1% | -8%
CON(C)c1nc(OCCNC(=O)COc2ccc(Cl)cc2C)nc(N(C)C)n1
    ? | -29%
Cc1ccc(-c2noc(C3CCCN(C(=O)c4c(F)cccc4F)C3)n2)cc1 (stereo not given)
    -14% | -14%
COc1ccc([C@@H](OC)[C@@]2(Cc3ccc(O)cc3)N=C(N)N(C)C2=O)cc1
    -17% | i
COc1ccc(NS(=O)(=O)c2cc(NC(=O)C3CC3)ccc2N2CCCCC2)cc1
    -21% | -6%
COc1ccc(Br)c(C(=O)Nc2cc3c(cc2N2CCCC2)n(C)c(=O)c(=O)n3C)c1
    -13% | -15%
COc1ccc([C@@H]2CC=C(C(=O)O)[C@H](c3cccc(Cl)c3)N2S(=O)(=O)c2ccccc2C)cc1
    -6% | i
CCCCn1c(O)c(C(CC)=Nc2ccc(C(=O)O)cc2)c(=O)[nH]c1=O
    3% | -17%
Cc1cccc(C)c1NC(=O)C(C)Sc1n[nH]c(-c2ccncc2)n1 (stereo not given)
    -6% | i
O=C(Nc1ccc(C(F)(F)F)cc1)c1ccccc1Br
    8% | -6%
COc1ccc(-n2nc3ccc(NC(=O)c4ccc(C#N)cc4F)cc3n2)cc1Cl
    5% | 3%
COC(=O)C1CCN(C(=O)COC(=O)c2oc3ccc(OC)cc3c2C)CC1
    -8% | -17%
Cc1cnc(C(=O)OCC(=O)N(CC(C)C)C2CCS(=O)(=O)C2)cn1 (stereo not given)
    -15% | -15%

Value order – VACV Venus inh | VACV mCherry inh
CC1CCCC(NC(=O)CSc2nnc(-c3cccnc3)n2N)C1C (stereo not given)
    -5% | -15%
COc1ccc(C2C(C(=O)c3ccc(C)o3)=C(O)C(=O)N2Cc2cccnc2)cc1 (stereo not given)
    -6% | i
Cc1ccc(/C=C/C(=O)N2CCN(S(=O)(=O)c3ccc(C)c(C)c3)CC2)o1
    -17% | -24%
Cc1cnc(C(=O)OCC(=O)Nc2c(Cl)cc(Cl)cc2Cl)cn1
    -11% | i
CC1CCCN(S(=O)(=O)c2cccc(-c3cn4cccnc4n3)c2)C1 (stereo not given)
    -12% | i
C/C(=N\N=C\c1cccc(F)c1)c1nnn(-c2nonc2N)c1C
    -5% | -9%
COCC(=O)Nc1ccc2c(c1)[C@@H]1C[C@H](CC(=O)NCc3cccc(F)c3)O[C@@H](CO)[C@@H]1O2
    -15% | -13%
O=c1c2c3c(sc2nnn1CCCCOc1ccc(Cl)cc1)CCCC3
    -5% | 0%
CCc1ccc(OCC(=O)N2CC(C(N)=O)Oc3ccccc32)cc1 (stereo not given)
    1% | -7%
Cn1c(C(=O)OC(C(=O)NC2CCCCC2)c2cccnc2)cc2sccc21 (stereo not given)
    -20% | -26%
O=S(=O)(Nc1ncnc2c1oc1ccccc12)c1ccc(Cl)s1
    -7% | 4%
COC(=O)c1sccc1NC(=O)CC1C(=O)NCCN1C(=O)Nc1ccc(F)cc1F (stereo not given)
    -13% | i
Cn1c(SCC(=O)NC2CC2)nnc1C1CC1
    -3% | i
CC(C)c1ccc(-n2nc3ccc(N)cc3n2)cc1
    0% | 10%
O=C1c2ccccc2C(=O)N1CCCCSc1nnc2ccccn12
    0% | .

Value order – VACV Venus inh | VACV mCherry inh
Cc1cc(N2C(=O)C(=O)/C(=C(/O)c3ccc(F)cc3)C2c2cccc(Br)c2)no1 (stereo not given)
    -17% | -5%
CC(C)c1ccc(NC(=O)CSc2nc(=O)n(Cc3cccnc3)c3c2CCC3)cc1
    -20% | -24%
CCC(Sc1nc2ccccc2c2nc(CCc3c(C)n[nH]c3C)nn12)C(=O)Nc1ccc(OC)cc1 (stereo not given)
    -1% | -3%
Cc1c(C)c2ccc(OCC(=O)N3CC[C@@]4(O)CCCC[C@H]4C3)c(C)c2oc1=O
    -11% | -12%
Cc1ccc(C)c(CN2CCC(CNC(=O)Nc3cccc(Cl)c3C)CC2)c1
    3% | ?
CCOc1ccc(N2CC(C(=O)Nc3ccccn3)CC2=O)cc1 (stereo not given)
    -10% | -2%
NC1C(N)C(N)C1N (stereo not given)
    -12% | -6%
Cc1ccc(C(=O)N/N=C/C=C/c2ccccc2)cc1
    -7% | i
COc1nccnc1NS(=O)(=O)c1ccc(N=Cc2c(C)[nH]n(-c3ccc(C)c(C)c3)c2=O)cc1
    -11% | -16%
Cc1ccc(-n2cnc3cc(C(=O)NCCC4=CCCCC4)ccc32)c(C)c1
    -5% | -7%
O=C(CN1C(=O)COc2ccc(S(=O)(=O)N3CCOCC3)cc21)N1CCN(c2ccc(Cl)cc2)CC1
    0% | 7%
O=C(COC(=O)CCC(=O)c1ccccc1)Nc1nnc(-c2ccccc2)o1
    -15% | -4%
COc1cccc(-c2cnc3c(NC(C)=O)cc(-c4ccncc4)cn23)c1
    -7% | -7%
O=C(Cn1cc2c(n1)CCCC2)N1CCOCC1
    12% | 9%
O=C(Cn1c(=O)c2cccn2c2ccc(F)cc21)N1CCN(c2ccc(F)cc2)CC1
    -4% | -11%

Value order – VACV Venus inh | VACV mCherry inh
O=c1oc(-c2cccs2)nc2sc3c(c12)CCCCC3
    -12% | -10%
CCCc1cc(=O)n2[nH]c(NC(=O)c3ccccc3Cl)nc2n1
    -3% | -12%
CN(CC(=O)NCc1ccncc1)S(=O)(=O)c1ccc(F)cc1
    -11% | -6%
Cn1c(=O)c2c(SCC(=O)NCc3ccco3)nc(-c3cccc(F)c3)nc2n(C)c1=O
    -7% | -8%
CCOc1ccc(C(=O)COC(=O)c2c(-c3ccccc3)noc2C)cc1
    -23% | -6%
CCOc1ccc2c(S(=O)(=O)O)cccc2c1[N+](=O)[O-]
    -9% | -12%
CCCCCn1c(CNC(=O)c2ccc(F)cc2)nc2ccccc21
    -10% | -7%
COCCNC(=O)C(c1ccncc1)N(C(=O)Cn1nnc2ccccc21)c1ccc(OC)cc1 (stereo not given)
    -17% | i
COc1ccc(-c2nc(C(N)=O)c3[nH]c(=O)n(-c4cccc(C)c4)c3n2)c(OC)c1
    -27% | -12%
O=C1C=C(c2ccccc2)CC(/C=C/c2ccccc2)C1 (stereo not given)
    -8% | i
Cc1ccc(-c2nc3cccnc3s2)cc1NS(C)(=O)=O
    -13% | -26%
Cc1ccc(NC(=O)c2ncn(CCCNCC3CCCO3)n2)cc1C (stereo not given)
    -4% | i
COc1ccc(CCNC(=O)CCCn2c(=O)c3ccccc3n(CC(=O)Nc3c(C)cc(C)cc3C)c2=O)cc1OC
    3% | 5%
Fc1ccccc1N1CCN(C2CCN(Cc3c[nH]c4ccccc34)CC2)CC1
    0% | -9%
CC(=O)NC(CCS(C)(=O)=O)C(=O)Nc1cccc(Cl)c1Cl (stereo not given)
    3% | -25%

Value order – VACV Venus inh | VACV mCherry inh
C(=C\c1ccccc1)/CSc1ccccn1
    -7% | -4%
CCOC(=O)c1ccc(NC(=S)NC2CCCC2)cc1
    -14% | -10%
Cc1ccc(C(=O)N2CCC(C)CC2)cc1S(=O)(=O)N1CCCCC1
    -21% | -16%
COc1ccc(CC(=O)Nc2nnc3n2CCS3)cc1OC
    2% | 4%
CCN(CC)c1ccc(C=C2SC(=S)NC2=O)cc1
    . | 11%
COc1ccccc1NC(=O)COc1ccccc1
    -2% | -15%
COc1ccc(N(C(=O)c2snc(C(N)=O)c2N)C(C(=O)NC2CCCC2)c2cccs2)c(OC)c1 (stereo not given)
    -12% | -16%
CCN(CC(=O)Nc1ccccc1Br)Cc1nc2ccccc2c(=O)[nH]1
    -17% | -8%[1.46 µM]
CCOc1ccc2c(c1)C(c1ccc(C)cc1)=NNC(c1ccc(OC)cc1)=N2
    -17% | i
CCOC(=O)N1CCN(S(=O)(=O)c2ccc(OC)c(Cl)c2Cl)CC1
    -21% | .
CCOC(=O)c1ccc(/[N+]([O-])=C/c2ccccc2)cc1
    -9% | -13%
O=C(Nc1ccc(Br)cc1)C1CC=CCC1C(=O)OCC1CCCO1 (stereo not given)
    -17% | -15%
O=C(Nc1cccc2ccccc12)N1CCN(c2ccccc2)CC1
    -9% | .
COc1ccc(C(=O)NC2CCCCC2)cc1S(=O)(=O)N1CCCC1
    -2% | -13%
O=C1c2cccc3c(O)ccc(c23)C(=O)N1Cc1ccco1
    i | -11%

Value order – VACV Venus inh | VACV mCherry inh
O=c1[nH]ncc2c3ccccc3n(Cc3cccc(Cl)c3)c12
    -10% | -27%
Cc1ccc(C)c(NC(=O)c2cnc(N3CCCC3)nc2C)c1
    -25% | -15%
O=C(NCC1CCN(Cc2ccccc2F)CC1)Nc1ccc(F)c(Cl)c1
    -19% | -12%
O=C(O)c1cccc(Nc2ncnc3ccccc23)c1
    -14% | -22%
O=C(/C=C/c1ccc(C(F)(F)F)cc1)OC(C(=O)NC1CC1)c1ccccc1 (stereo not given)
    -8% | 11%

One compound at a time (already shown). Screens in order: VACV Venus inh, VACV mCherry inh
O=C(NCC1CCN(Cc2ccccc2F)CC1)Nc1ccc(F)c(Cl)c1 is listed as -19%, -12%
Cc1ccc(C)c(NC(=O)c2cnc(N3CCCC3)nc2C)c1 is listed as -25%, -15%
O=C(O)c1cccc(Nc2ncnc3ccccc23)c1 is listed as -14%, -22%

Bioassay records (PubChem BioAssay)
